Biofilm kill mix: mixture kills Candida albicans biofilm cells; inhibition, % at 7.6 µM; AID 1242; 0.02% of 120,000 active; C. albicans biofilm persisters + clotrimazole, fluorescence viability; primary screen in compound mixtures of four per well;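 active = inhibition above 30.3% in the primary screen of four-compound pools, then above 30% when the compound was retested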;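 also: compounds exposed to preformed 24 h biofilms for 48 h; the number belongs to the whole pool; some results filed as inactive read as strong as hits; inactives centre near 12; 0% = biofilm with clotrimazole alone and 100% = kill control; retested singly at about 60 µM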
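Assay system: C. albicans biofilms / Medium: RPMI/MOPS medium, pH 7.0 / Schedule: biofilm formation 24 h, compound exposure 48 h, 37 °C / Measured by: Alamar Blue fluorescence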
Numbers without * were called inactive. The list is partial. The share of hits here may be higher or lower than overall.

SMILES | Biofilm kill mix
O=C(Nc1nnc(-c2cccs2)s1)c1cccc(F)c1 | 3.0
Cc1ccc(-c2nnc(NCc3ccccc3)c3ccccc23)cc1 | 12.2
CC(C)(C)c1ccc2c(c1)OC(C(=O)N/N=C\c1ccncc1)CO2 (stereo not given) | 22.2
Cc1c(/C=N/Nc2ccc(F)cc2)c(O)n(C)c(=O)c1C#N | 6.0
O=C(NCc1ccccc1)C1=C[C@@H](c2coc3ccccc3c2=O)C[C@@H](OCc2ccc(CO)cc2)O1 | 18.9
Cc1ccc(NC(=O)CSc2nnc(C)c(=O)n2N)c(C)c1 | 22.6
Cc1ccc(/C=N/N(C)C2=NS(=O)(=O)c3ccccc32)o1 | 9.7
Cc1cc(NC(=O)CN2C(=O)NC3(CCCCC3)C2=O)no1 | 18.8
O=C(Nc1ccc(Cl)cn1)c1ccc2c(c1)OCCO2 | 57.9
CCn1cc(C(=O)NCc2cccs2)c(=O)c2cc(S(=O)(=O)N3CCOCC3)ccc21 | 0.7
CC1CCN(CCCn2c(=S)[nH]c3c(sc4ccc([N+](=O)[O-])cc43)c2=O)CC1 | 20.8
CCOC(=O)c1ccc(NC(=O)Nc2cc(C)cc(C)n2)cc1 | 7.8
Cc1ccc(Nc2nc(C(=O)N3CCC(C(=O)NC(C)C)CC3)cs2)cc1 | 7.3
CCNC(=O)N1CCN(C(=O)NCC)CC1 | 5.3
O=C(Nc1nc2ccccc2s1)c1ccc(OCC2CCCO2)cc1 (stereo not given) | 1.9
CC[C@@H](C)C(NC(=O)OC(C)(C)C)c1cn([C@@H](Cc2ccc(O)cc2)C(=O)N2CCN(C(=O)OC(C)(C)C)CC2)nn1 (stereo not given in full) | 13.4
O=C(CCC(=O)N/N=C/c1cc(Cl)cc(Cl)c1O)NCc1ccccc1 | 17.9
O=C(COc1ccc2ccccc2c1)Nc1nccs1 | 26.1
NCCCCCC(=O)N/N=C/c1ccc2nccnc2c1 | 29.3
O=C(COC(=O)c1cc[n+]([O-])cc1)Nc1cccc(Cl)c1Cl | 18.6
COc1ccccc1OCCSc1nnnn1C1CCCCC1 | 13.2
COc1ccc(CCNC(=O)CSc2nn(-c3ccccc3)c(=S)s2)cc1 | 17.7
CC(=O)Nc1ccc(Nc2cc(-c3ccccc3)nc3ncnn23)cc1 | 19.2
O=C(Nc1ccc(N2CCOCC2)cc1)c1nc2ccccc2s1 | 19.9
NC(=O)N/N=C\c1cccs1 | 1.9

Reprinted from the part before: four compounds, then new ones.
SMILES | Biofilm kill mix
COc1ccc(CCNC(=O)CSc2nn(-c3ccccc3)c(=S)s2)cc1 | 17.7
CC(=O)Nc1ccc(Nc2cc(-c3ccccc3)nc3ncnn23)cc1 | 19.2
O=C(Nc1ccc(N2CCOCC2)cc1)c1nc2ccccc2s1 | 19.9
NC(=O)N/N=C\c1cccs1 | 1.9
Cc1ccc2nc(-c3ccc(NC(=O)CN4C(=O)c5ccccc5C4=O)cc3)sc2c1 | 3.5
Cc1nnc(SCC(=O)Nc2nnc(SCc3cccc(Br)c3)s2)s1 | -2.2
N=C1/C(=C/c2ccc(OC(=O)c3ccco3)cc2)C(=O)N=C2SC=CN12 | 14.7
COc1ccc(CNC(=O)c2cc(-c3cc(C)cc(C)c3O)n[nH]2)cc1 | 25.1
Cc1ccc(S(=O)(=O)N2CC(O)CC2C(=O)OCc2nc3sc(C)c(C)c3c(=O)[nH]2)cc1 (stereo not given) | 6.0
CCCNC(=O)CSc1nc2[nH]ncc2c(=O)[nH]1 | 14.4
O=C(NN=C1c2ccccc2-c2ccccc21)c1cccc(Br)c1 | 9.9
CCOC(=O)/C(=C\c1c[nH]c2ccccc12)NC(C)=O | 13.3
CCOC(=O)c1[nH]cnc1C(=O)Nc1cccc(N)n1 | -10.8
COC(=O)C1=C(C)NC(=S)NC1c1ccc(-c2cccc(Cl)c2)o1 (stereo not given) | 11.7
Cc1ccc(S(=O)(=O)N2CCC(=O)N(C(COCc3ccc(C(F)(F)F)cc3)Cc3ccccc3)CC2)cc1 (stereo not given) | -3.9
COc1ccc(C(=O)C2CCN(C(=S)NCCc3ccccc3)CC2)cc1 | 15.7
CNC(=O)c1[nH]cnc1C(=O)N[C@@H](Cc1ccccc1)C(=O)OCc1ccccc1 | 17.1
COc1ccc(NC(=O)N2CCCC(CNS(=O)(=O)c3cccs3)C2)c(C)c1 (stereo not given) | 7.3
COc1ccccc1COn1c(=O)c(-c2ccco2)[n+]([O-])c2ccccc21 | -9.1
Cc1cccc2nc3c(nc12)-c1ccccc1C3=O | 17.8
Cc1ccc(N=Cc2nc(-c3ccc(C)cc3)oc2O)cc1 | 9.5
CC(=O)Nc1ccc(N2CC(C)(C)C2=O)cc1 | 21.6
Cc1ccccc1-n1c(SCC(=O)N2CCC(C(=O)O)CC2)nnc1-c1ccncc1 | 11.1
NC1=NC(=O)/C(=C/c2cn(Cc3ccccc3)c3ccccc23)S1 | 12.4
O=C(OCc1csc(-c2ccccc2)n1)c1ccc(O)cc1 | 9.2
Cc1noc(C)c1C(=O)N1CCC(C(=O)c2ccc(F)cc2F)CC1 | 17.8
CCCC(=O)Nc1ccc(OCC(O)CNC(C)C)c(C(C)=O)c1 (stereo not given) | 7.0
CCOC(=O)c1c(NC(=O)COC(=O)CNC(=O)c2ccco2)sc(C)c1C | 25.0
Fc1ccc(CNCCC(Cc2ccccc2)c2ccco2)cc1 (stereo not given) | 24.9

Remaining list, next part:
SMILES | Biofilm kill mix
CCOC(=O)C1=C(CC)Nc2ccccc2N/C1=N\S(=O)(=O)c1ccc(C(=O)OCC)cc1 | 10.8
O=C1CN(C(=O)CSc2nc3ccccc3c(=O)n2Cc2ccc(F)cc2)c2ccccc2N1 | 11.7
Cc1cc(C)cc(OCCNC(=O)C(C)N2C(=O)c3ccccc3C2=O)c1 (stereo not given) | 23.8
CCN(CC)S(=O)(=O)N1CCC(C(=O)NCc2ccco2)CC1 | 12.0
COc1ccc(-c2ccc(SCC(=O)c3ccccc3)nn2)cc1OC | 4.1
Cc1noc(C)c1C(=O)NCc1ccccc1Br | 10.2
COc1ccc(-c2[nH]ncc2CN2CCCC2c2nonc2C)c(F)c1 (stereo not given) | 28.2
Cc1noc(C)c1S(=O)(=O)Nc1ccc(C(=O)N2CCN(c3ccc(F)cc3)CC2)cc1 | 12.1
COC(=O)C1=C(C)N(CCc2c[nH]c3ccccc23)C(=O)/C1=C\N(C)C | 14.7
CCC(C)c1ccccc1NC(=O)COC(=O)c1ccc2c(c1)S(=O)(=O)c1ccccc1C2=O (stereo not given) | 13.1
O=C(COC(=O)c1nc(Cl)ccc1Cl)Nc1ccc2c(c1)OCO2 | 10.6
CCOc1cc(/C=N/Nc2nc3ccccc3[nH]2)cc(Br)c1OCC(=O)N(C)C | 11.9
CC(=O)NS(=O)(=O)c1ccc(NC(=O)CCc2ccccc2)cc1 | 14.6
O=C(Nc1cccc([N+](=O)[O-])c1)c1ccncc1 | -3.0
COc1ccccc1CNC(=O)C1CC(c2ccccc2C(F)(F)F)=NO1 (stereo not given) | 12.4
O=C(Nc1cscc1S(=O)(=O)c1ccc(Cl)cc1)c1ccccc1Cl | 14.2
CC(Sc1ccccc1)C(=O)NN=C1CCN(C)CC1 (stereo not given) | 21.0
N#C/C(=C\c1ccc(OC(F)F)cc1)C(=O)N1CCCCC1 | 16.3
O=C(/C=C/c1ccc(F)cc1)N1CC[C@@]2(O)CCCC[C@H]2C1 | 19.3
O=C(CSC1=N/C(=C/c2ccc(Cl)c(Cl)c2)C(=O)N1c1ccccc1F)NC1CC1 | 7.3
O=C(NCC1CCCO1)C(=O)N/N=C/c1ccc(O)c(Cl)c1 (stereo not given) | 12.8
CCOCCCNc1c2c(nc3cc(-c4ccc(F)cc4)nn13)CCC2 | 5.3
OCCC1CN(Cc2cc(F)ccc2-n2cccn2)CCN1Cc1ccc(F)cc1 (stereo not given) | 24.9
Cc1cc(C)n2cc(COc3ccc4ccccc4c3)nc2n1 | 18.2
COc1cc(/C=N/NC(=O)CC2(C)OCCCO2)ccc1OCc1ccc(Cl)cc1Cl | -0.9

(list continues)
SMILES | Biofilm kill mix
Cc1cccc(OCC(=O)Nc2nnc(-c3ccco3)s2)c1 | -9.3
O=c1c2ccccc2nc(COc2ccccc2)n1/N=C/c1c[nH]c2ccccc12 | 17.4
CCN1CCN(C(=O)c2ccc(C(F)(F)F)cc2)CC1 | 10.4
CON(C)S(=O)(=O)c1ccc2c(c1)N(Cc1ccc(C)cc1)C(=O)C1CCCN21 (stereo not given) | 11.7
COc1cc(/C=C2\C(=O)NN(c3ccccc3)C2=O)ccc1OCC(N)=O | 17.1
CC(=O)Nc1ccc(C(=O)N/N=C/c2ccc(F)cc2)cc1 | 26.8
CCCNC(=O)c1ccc2c(=O)c(O)c(C)[nH]c2c1 | 15.3
C[C@](N)(Cc1ccc(O)c(O)c1)C(=O)O | 6.6
COc1ccc(N/C=C(\C2OC(=O)c3ccccc32)[N+](=O)[O-])cc1 (stereo not given) | 10.9
O=C(CCc1ccc(O)cc1)N/N=C/c1coc2ccccc2c1=O | 13.0
COc1ccccc1N1CC(C)(C)C(=O)N(C(=O)c2ccc(Cl)cc2)C1=S | 16.7
CCOCCCNc1nc2c(-c3ccccc3)nnn2c2ccccc12 | 9.5
CCCn1c(N2CCN(C(=O)Nc3ccccc3)CC2)nc2ccccc21 | 26.3
CC(C)N(Cc1ccccc1)C(=O)CCc1ccccc1 | -1.5
COc1ccc(/C=N/NC(C)(C)C)c(OC)c1 | -0.4
Cn1cccc1/C=C1\SC(=O)N(c2ccc(O)cc2)C1=O | 9.1
O=C(CNC(=O)c1ccc(Cl)cc1)NCC(F)(F)F | 11.1
CCOc1cc(/C=N/O)ccc1OCc1ccc([N+](=O)[O-])cc1 | 13.0
O=C(NN1C(=O)C2C3C=CC([C@H]4CC34)[C@@H]2C1=O)c1ccc(Br)cc1 (stereo not given in full) | 13.7
CCSC1=N/C(=C\c2ccc(OC)cc2)C(=O)N1 | 13.5
CSc1ccccc1C(=O)C1CCCN(C(=O)c2ccc(N3CCOCC3)cc2)C1 (stereo not given) | 24.8
CCCCc1c(C)nc2ccccc2c1SCCC#N | 15.0
Cc1ccc(C(=O)Nc2ccc(NC(=O)c3cccs3)cc2)cc1[N+](=O)[O-] | 2.5
COc1ccc(NC(=O)CN2C(=O)/C(=C3\SC(=S)N(C4CCS(=O)(=O)C4)C3=O)c3ccccc32)cc1 (stereo not given) | 13.2
CC(=O)c1ccc(NC(=O)C2Cc3ccccc3CN2C(=O)c2ccccc2)cc1 (stereo not given) | 15.4

Looked up above.
Biofilm kill mix result of CON(C)S(=O)(=O)c1ccc2c(c1)N(Cc1ccc(C)cc1)C(=O)C1CCCN21 (stereo not given) stands at 11.7
Biofilm kill mix result of O=c1c2ccccc2nc(COc2ccccc2)n1/N=C/c1c[nH]c2ccccc12 stands at 17.4
Biofilm kill mix result of CCCn1c(N2CCN(C(=O)Nc3ccccc3)CC2)nc2ccccc21 stands at 26.3
Biofilm kill mix result of CCOc1cc(/C=N/O)ccc1OCc1ccc([N+](=O)[O-])cc1 stands at 13.0
Biofilm kill mix result of C[C@](N)(Cc1ccc(O)c(O)c1)C(=O)O stands at 6.6
Biofilm kill mix result of Cc1ccc(C(=O)Nc2ccc(NC(=O)c3cccs3)cc2)cc1[N+](=O)[O-] stands at 2.5

(further entries)
SMILES | Biofilm kill mix
Cc1ccc(-c2csc(/C(C#N)=C/Nc3ccccc3SC(F)(F)F)n2)c(C)c1 | 3.0
COc1cc(C(=O)NC(=S)Nc2ccc3c(c2)C(=O)N(C)C3=O)cc(OC)c1OC | 1.3
CCOC(=O)c1c(C)n(C)c2ccc(OCC(O)Cn3nc(C)c(Br)c3C)cc12 (stereo not given) | 5.0
CCOC(=O)c1ccc(NC(=S)NNC(C)(C)C)cc1 | 22.5
Cc1cc(NC(=O)C(=O)NCc2cccc(Cl)c2)no1 | 14.4
Nc1nc(Sc2ccc(C(F)(F)F)cn2)n[nH]1 | 15.7
COc1ccccc1NS(=O)(=O)c1cc([N+](=O)[O-])ccc1N/N=C/c1sc(N2CCOCC2)nc1-c1ccccc1 | 9.8
Cc1ccc(C(=O)OCC(=O)NCc2cccs2)cc1C | -4.1
O=S(=O)(Cc1ccccc1)Nc1ccc(S(=O)(=O)N2CCCC2)cc1 | 18.3
Cc1nc(N2CCCCC2)c2c(C)c(C(=O)Nc3ccccc3C(F)(F)F)sc2n1 | 4.4
COC(=O)C1=C(C(=O)OC)C(c2ccccc2O)c2sc(=O)[nH]c2S1 (stereo not given) | 17.9
CCCCn1c(=O)[nH]c(=O)c2c1nc(-c1ccccc1F)n2Cc1ccccc1 | -8.9
CCOc1ccc(/C=N/Nc2nc(=O)[nH]nc2C)cc1OC | 9.2
C/C(=N\Nc1ncc(Cl)cc1Cl)c1ccc(OC(F)F)cc1 | 14.0
COc1ccc(/C=N/NC(=O)c2ccc3nc[nH]c3c2)cc1 | 14.4
O=C(/C=C/c1cccs1)Nc1ccc([N+](=O)[O-])cc1 | 14.0
CC(/C=N/NC(=O)Cn1cnc2ccccc21)=C\c1ccccc1 | 14.6
CN(Cc1ccccc1)C(=O)COc1ccc(Br)cc1Cl | 14.0
COc1cccc(C(=O)Nc2c[nH]c(=O)[nH]c2=O)c1 | 13.5
Cc1ccc(-c2csc(NC(=O)C3CCN(S(=O)(=O)c4cccs4)CC3)n2)cc1 | -6.2
O=C(NCc1cccnc1)c1csc2c1CCCC2 | 7.6
CC(=O)c1c(C)nc(-c2ccccc2)nc1NC(=O)Cc1ccccc1 | 8.6
CN1CCC(OC(=O)COc2ccc(F)cc2)CC1 | 6.2
CSc1cccc(NC(=S)N(Cc2ccc(C)cc2)Cc2cccnc2)c1 | 9.2

A stretch taken from the entries so far:
SMILES | Biofilm kill mix
CN1CCC(OC(=O)COc2ccc(F)cc2)CC1 | 6.2
CSc1cccc(NC(=S)N(Cc2ccc(C)cc2)Cc2cccnc2)c1 | 9.2

An excerpt of these results, as tab-separated lines:
Structure	Biofilm kill mix
Cc1cc(NC(=O)C(=O)NCc2cccc(Cl)c2)no1	14.4
CCCCn1c(=O)[nH]c(=O)c2c1nc(-c1ccccc1F)n2Cc1ccccc1	-8.9
CN(Cc1ccccc1)C(=O)COc1ccc(Br)cc1Cl	14.0

Source: PubChem (PCMD)
